YopH PTP inh = YopH tyrosine phosphatase inhibitors, primary screen, biochemical, fluorescence Ex485/Em525; YopH tyrosine phosphatase [Yersinia enterocolitica]; 0.16% of 140,000 active; inhibition, %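 (about 10 µM by stock and volumes)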; AID 898, 2007;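 active means inhibition of 50% or more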;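 further: controls were vehicle for no effect and minimum signal wells for full effect; inactives centre near -20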
Mtb growth = M. tuberculosis H37Rv growth inhibitors, H37Rv strain (AID 1626); M. tuberculosis H37Rv growth inhibition; higher % means a stronger effect; 0.95% of 220,000 active; inhibition, % at 10 µM, or IC50 in µM where a hit was titrated;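 active means confirmed in a dose series; inconclusive means inhibition above 80% but not taken into the dose series; inactive means below 80% or under 30% at every dose of the series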;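 further: bacteria incubated seven days before Alamar blue readout; 0% = bacteria only wells and 100% = bacteria with antibiotic wells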
Mtb betalactam = beta-lactam sensitization of Mtb H37Rv, H37Rv; 0.27% of 330,000 active; inhibition, % at 25 µM; M. tuberculosis H37Rv growth with meropenem, percent inhibition; hits of this screen are not shown here;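 active means about 74% or more and at least 40 points above the plate without the antibiotic, then above 30% in a dose series; inconclusive means first-round hits that could not be retested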;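 further: growth measured after seven days incubation then overnight dye step; 0% = bacteria only wells and 100% = bacteria with antibiotic; twin plates without the antibiotic show which effects depend on it; some results filed as inactive read as strong as hits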
Arbovirus inh = antivirals against arbovirus infection, primary screen, cell-based, full library, 10K replicate subset. 0.37% of 200,000 active. arbovirus infection cell-based antiviral screen. AID 1251, 2008. inhibition, % at 10 µM;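 active means inhibition from about 30%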;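 further: bluetongue infection of BSR cells; cell survival read as ATP light after 72 h; 0% = infected wells without compound and 100% = uninfected wells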
RecA splice inh = Mtb RecA intein splicing inhibitors, primary screen, biochemical, fluorescence, HTS | Protein RecA (Mycobacterium tuberculosis (strain ATCC 25618 / H37Rv)), P9WHJ3 | cell-free RecA intein splicing | inhibition, %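 (about 9 µM by stock and volumes)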 | 0.75% of 290,000 active; in the data active means inhibition above about 30%; inconclusive means no clear call, values can overlap the other calls;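 further: 0% = vehicle wells and 100% = reference inhibitor control wells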
Target sequence (P9WHJ3 whole entry, looked up, canonical isoform): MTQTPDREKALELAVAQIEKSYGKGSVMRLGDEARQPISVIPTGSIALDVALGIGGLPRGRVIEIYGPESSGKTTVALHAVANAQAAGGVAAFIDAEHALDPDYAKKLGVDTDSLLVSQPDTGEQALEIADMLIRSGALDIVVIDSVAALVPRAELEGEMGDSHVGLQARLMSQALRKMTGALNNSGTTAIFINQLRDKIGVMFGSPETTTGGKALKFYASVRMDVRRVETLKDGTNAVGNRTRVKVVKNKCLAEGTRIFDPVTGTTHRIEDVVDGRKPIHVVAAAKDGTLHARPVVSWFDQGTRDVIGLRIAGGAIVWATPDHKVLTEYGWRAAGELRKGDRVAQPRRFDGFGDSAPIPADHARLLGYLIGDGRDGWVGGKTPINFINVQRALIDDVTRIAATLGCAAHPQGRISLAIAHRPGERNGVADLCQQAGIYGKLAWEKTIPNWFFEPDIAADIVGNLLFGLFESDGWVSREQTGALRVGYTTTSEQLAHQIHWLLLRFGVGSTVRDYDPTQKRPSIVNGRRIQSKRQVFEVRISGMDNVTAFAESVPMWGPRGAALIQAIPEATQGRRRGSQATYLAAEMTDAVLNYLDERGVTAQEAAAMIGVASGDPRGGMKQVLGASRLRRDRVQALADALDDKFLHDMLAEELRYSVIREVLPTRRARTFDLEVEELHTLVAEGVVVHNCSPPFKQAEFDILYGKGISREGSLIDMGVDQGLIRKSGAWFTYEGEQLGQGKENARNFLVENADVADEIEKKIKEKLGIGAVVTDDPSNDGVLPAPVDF
Arbovirus inh repeat = second read-out of Arbovirus inh, no call of its own (marks repeat the call); inhibition, %; measured here: 10K subset replicate screen; many hits read low in the repeat;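 first of two repeat runs on a subset; 0% = infected and 100% = uninfected wells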
Numbers without * were called inactive; u = inconclusive; x = not tested or not shown. An excerpt; rates above refer to the full screens.

SMILES	YopH PTP inh	Mtb growth	Mtb betalactam	Arbovirus inh	RecA splice inh	others
COCCN=c1scc(-c2ccc3c(c2)NC(=O)CO3)n1/N=C(\C)c1ccc(O)cc1	x	10%	6	x	-0.6
O=C(CSc1nnc(-c2cc3ccccc3cc2O)n1Cc1ccco1)c1ccc(F)cc1	-25	1%	2	-26	18
COc1ccc(-c2c(C)nn3c(N4CCCCCC4)cc(C)nc23)cc1OC	x	x	100	x	18
Cc1ccc(N2CC(C(=O)Nc3nnc(SCCC4OCCO4)s3)CC2=O)cc1C (centres undefined)	x	x	7	x	-1.6
Cc1ccc(NC(=O)CN2C(=O)NC(C)(c3ccc(Cl)cc3)C2=O)cc1S(=O)(=O)N1CCOCC1 (centres undefined)	-20	6%	-2	-15	-0.7
CCCCn1ccnc1C	x	-11%	1	x	13
COc1cccc(N2C(=O)NC(=O)/C(=C\c3ccc([N+](=O)[O-])s3)C2=O)c1	x	16%	x	-2	x
O=S(=O)(Nc1ccc(Oc2ncccn2)c(Cl)c1)c1ccc(Cl)cc1	-21	x	-3	3	-2.5
Clc1cccc(CSc2nnc(-c3c[nH]c4ccccc34)o2)c1	-11	13%	-8	-8	-0.2
Cc1c(C(=O)Nc2cccc(C(F)(F)F)c2)oc2ccc(S(=O)(=O)N3CCOCC3)cc12	5	7%	-4	8	x

Of the compounds above, 2 contain an aryl methoxy group.
SMILES	YopH PTP inh	Mtb growth	Mtb betalactam	Arbovirus inh	RecA splice inh	others
COc1ccc(-c2c(C)nn3c(N4CCCCCC4)cc(C)nc23)cc1OC	x	x	100	x	18
COc1cccc(N2C(=O)NC(=O)/C(=C\c3ccc([N+](=O)[O-])s3)C2=O)c1	x	16%	x	-2	x

(more compounds)
SMILES	YopH PTP inh	Mtb growth	Mtb betalactam	Arbovirus inh	RecA splice inh	others
c1cncc(-c2nnc(-c3cccnc3)nn2)c1	-19	x	80	-48	-2.6
CC(C)c1cc(C(=O)Nc2cc(Cl)ccc2O)no1	-22	36%	-3	13	3.2
Cc1cccc(-n2ncc3c(N(CCO)CCO)ncnc32)c1	-28	2%	5	-7	0.5	Arbovirus inh repeat=-1
C=CCN1CCN(C(=O)c2c(-c3ccccc3)noc2C)CC1	x	x	6	x	1.7
OC(CNCC(c1ccc(Cl)cc1Cl)c1c[nH]c2ccccc12)c1ccccc1 (centres undefined)	x	6.7µM*	100	-33	17
CCCCC1(CC(=O)OC)C(=O)N(c2ccccc2)N(c2ccccc2)C1=O	-24	-9%	1	-6	3.2
Cc1c(C(=O)C(=O)NCCC2=CCCCC2)c2ccccc2n1C	-11	1%	6	-2	4.6
Cc1ccc(S(=O)(=O)N/N=C/c2cc(Br)ccc2O)cc1	x	5%	-2	x	0.3
CCOC(=O)CN(c1ccccc1C)S(=O)(=O)c1ccc(Cl)cc1	x	x	2	x	5.0
Cc1ccc(NC(=O)C2CCCN(S(=O)(=O)c3c(C)noc3C)C2)cc1 (centres undefined)	x	0%	-3	0	0.6
O=c1cc(CN2CCN(c3ccccc3O)CC2)nc2sccn12	-16	1%	-9	7	-6.8
Clc1ccc(C#Cc2cccnc2)cc1	x	x	-3	x	-1.6
CCCCS(=O)(=O)Nc1ccc2c(c1)ncn2C1CCCCC1	16	0%	7	12	1.8
Cc1nnc(SCC(=O)NCc2cccs2)[nH]c1=O	-44	7%	2	10	0.4
CC(C)Oc1cccc(C(=O)Nc2ccc(Br)cc2F)c1	-28	10%	-2	1	-0.2
Cc1ccc(OC(=O)NC2CCS(=O)(=O)C2)cc1C (centres undefined)	4	-5%	u	8	0.1
Cc1cccc(N2C(=O)NC(=O)C3(Cc4cc(C)ccc4N(C)C3)C2=O)c1 (centres undefined)	-21	14%	-5	7	0.6
O=C(NC(=S)Nn1cnnc1)c1ccc(F)cc1Cl	x	x	-3	x	-1.4
Cc1ccccc1Nc1c([N+](=O)[O-])cncc1[N+](=O)[O-]	x	x	22	x	15
O=C(/C=C/c1ccc(S(=O)(=O)N2CCOCC2)cc1)N(CCO)Cc1ccccc1	x	8%	-9	-1	4.2
O=C(CN1C(=O)NC2(CCCC2)C1=O)NCCC1=CCCCC1	-3	-5%	-1	6	2.1
Cc1cc(C)nc(NC(=O)C(C)N2C(=O)c3ccccc3C2=O)n1 (centres undefined)	36	-10%	-13	-4	6.4
O=C(O)c1ccc(CNC(=S)Nc2ccccc2)cc1	x	2%	1	9	-1.7
CCN(CC)CCN(C(=O)CCS(=O)(=O)c1ccccc1)c1nc2cc(OC)c(OC)cc2s1	x	x	-2	x	-9.1
CCc1ccccc1NC1c2ccccc2C(=O)N1c1cccnc1 (centres undefined)	12	-11%	6	10	3.3
COc1ccc(C(=O)Nc2ccc([N+](=O)[O-])cn2)cc1OC	-32	7%	-1	2	4.2
O=C(CN(C(=O)c1csnn1)c1ccc2c(c1)OCCO2)NCc1ccc(F)cc1	x	x	-3	x	-0.8
O=C(COC(=O)CCC(NC(=O)OCc1ccccc1)C(=O)OCC(=O)Nc1ccccc1)Nc1ccccc1 (centres undefined)	-19	-6%	-1	-10	0.6
O=C1NNC(=O)C2C3C=CC(C4CC34)C12 (centres undefined)	-11	-10%	-7	10	-1.2
O=C(COC(=O)c1ccccn1)Nc1cccc2ccccc12	x	3%	1	6	1.6

The final 7 records of the section before lead into the next:
SMILES	YopH PTP inh	Mtb growth	Mtb betalactam	Arbovirus inh	RecA splice inh	others
CCN(CC)CCN(C(=O)CCS(=O)(=O)c1ccccc1)c1nc2cc(OC)c(OC)cc2s1	x	x	-2	x	-9.1
CCc1ccccc1NC1c2ccccc2C(=O)N1c1cccnc1 (centres undefined)	12	-11%	6	10	3.3
COc1ccc(C(=O)Nc2ccc([N+](=O)[O-])cn2)cc1OC	-32	7%	-1	2	4.2
O=C(CN(C(=O)c1csnn1)c1ccc2c(c1)OCCO2)NCc1ccc(F)cc1	x	x	-3	x	-0.8
O=C(COC(=O)CCC(NC(=O)OCc1ccccc1)C(=O)OCC(=O)Nc1ccccc1)Nc1ccccc1 (centres undefined)	-19	-6%	-1	-10	0.6
O=C1NNC(=O)C2C3C=CC(C4CC34)C12 (centres undefined)	-11	-10%	-7	10	-1.2
O=C(COC(=O)c1ccccn1)Nc1cccc2ccccc12	x	3%	1	6	1.6
COc1ccc(C2CC(=O)C3=C(C2)NC(C)=C(C#N)C3c2ccc(N(C)C)cc2)cc1 (centres undefined)	1	13µM*	99	0	-3.2	Arbovirus inh repeat=-4
O=C(Nc1cccc(N=Cc2cc(Cl)cc(Br)c2O)c1)c1ccco1	-18	8%	5	-6	-1.5
Cc1coc2cc3oc(=O)c(CC(=O)N[C@@H](CC(C)C)C(=O)O)c(C)c3cc12	x	x	-3	x	-4.3
CCCCNc1c(N)n(CCCC)c(=O)[nH]c1=O	31	0%	0	2	-6.9
Cc1cc(=O)[nH]c(N/N=C/c2ccc3c(c2)OCCO3)n1	x	0%	1	x	-3.3
C=CCn1c(SCCOc2ccc(OC)cc2)nnc1C(CO)NC(=O)c1ccc(OC)cc1 (centres undefined)	-12	2%	7	2	x
S=c1[nH]nc(-c2cccs2)n1Cc1ccccc1	x	1%	2	-1	0.7
CC(NC(=O)N1CCN(c2ccccc2F)CC1)c1ccc(F)c(F)c1 (centres undefined)	x	x	0	x	-3.3
Cc1c(/C=N/Nc2ccc(C(=O)O)cc2)c2ccccc2n1C	x	-3%	2	x	-6.3
CN(C)c1ccc(C2(c3ccc(N(C)C)cc3)OC(=O)c3cc(N)ccc32)cc1	x	x	-6	x	2.1
CCCCn1c(O)c(C=NCCCN(CC)CC)c(=O)[nH]c1=O	-51	-9%	-3	2	0.9
O=C1CC(SCCc2nc3ccccc3[nH]2)C(=O)N1c1ccc(Cl)cc1 (centres undefined)	-40	2%	-8	6	2.6
O=C(CCS(=O)(=O)c1cc(Br)cc2c1N(C(=O)C1CC1)CC2)NCc1ccco1	-22	-8%	x	7	x
CN(Cc1c(C(=O)N/N=C/c2cccc(O)c2)nnn1-c1nonc1N)c1ccccc1	x	x	8	x	2.7
CCN1C(=O)CS/C1=N\S(=O)(=O)c1ccc(Cl)cc1	x	5%	6	-1	-0.3
CCOc1ncccc1C(=O)OCC(=O)c1cccc(Br)c1	x	2%	4	2	6.2
CCN(CC)S(=O)(=O)c1ccc(OC)c(NC(=O)C2CC(=O)N(c3ccc(C)cc3)C2)c1 (centres undefined)	x	-7%	-3	-5	-4.4
COc1ccc(S(=O)(=O)Nc2ccccc2Cl)cc1NC(C)=O	x	0%	-1	6	-1.3
N=Cc1c(O)n(-c2cccc(Cl)c2)c(=O)[nH]c1=O	-28	5%	0	5	0.2
Cc1ccc(S(=O)(=O)N2CCC(C)CC2)cc1	x	x	-4	x	-0.9
CCCCOP(=O)(OCCCC)C(Nc1ccccc1)c1ccc2c(c1)OCO2 (centres undefined)	-26	14%	0	-25	2.4
CC1CCCCN1CCNC(=O)c1cnn2ccccc12 (centres undefined)	x	4%	3	1	1.2	Arbovirus inh repeat=5
COc1ccc(CNC(=O)C2CCN(C(=O)N(C)C)CC2)c(OC)c1	-3	0%	-9	0	0.6
Cc1ccc(NC(=O)CSc2nnc(CN3CCOCC3)n2C)cc1C	-8	-4%	1	-1	x
CN(NC1OC(=O)c2ccccc21)c1ccccc1[N+](=O)[O-] (centres undefined)	x	-6%	4	x	-0.8
O=C(CSc1ncccn1)NCC1CCCO1 (centres undefined)	x	x	-1	x	-0.7
COC(=O)CC1C(=O)NCCN1C(=O)Nc1ccc(Cl)c(Cl)c1 (centres undefined)	x	-12%	-1	0	-6.5
O=C(NC(=S)Nc1ccccc1Cl)c1cnn2c(C(F)(F)F)cc(C(F)(F)F)nc12	x	4%	-1	x	x
Cc1ccc(-n2nc3c(c2NC(=O)/C=C\c2ccc4c(c2)OCO4)CSC3)c(C)c1	-30	x	3	-6	-1.5
O=[N+]([O-])c1ccccc1NCCOc1ccccc1	-29	9%	1	-9	-2.1
Cc1cccc(CSc2nc3c(c(=O)[nH]2)CCCC3)c1	-26	11%	40	11	-7.9
COc1ccc(Br)cc1/C(C)=N/NC1=NCCN1	0	10%	-15	-1	4.6
O=C(CSc1nnc(-c2cccs2)o1)N1CCc2ccccc21	-31	4%	67	5	-0.9
CCOc1ccc(CNCCN2CCCC2)cc1	x	x	-11	x	1.3
CC1CCC(NC(=O)CC(C)(C)Cc2nc3ccccc3c(=O)[nH]2)CC1 (centres undefined)	-7	-1%	2	7	-2.5
CC1=C(C(=O)Nc2ccc(Cl)cc2)C(c2cccs2)n2nnnc2N1 (centres undefined)	-1	-2%	1	1	2.9
Cn1c(=O)c2c(ncn2CC(=O)N/N=C/C=C/c2ccccc2[N+](=O)[O-])n(C)c1=O	x	3%	2	x	-0.8
CN(C)C(=O)Oc1ccc(C(=O)c2ccccc2)cc1	-49	-3%	-1	3	-3.2	Arbovirus inh repeat=1
O=C1CSC(c2cccnc2)N1c1cccc(Cl)c1 (centres undefined)	x	-7%	-3	7	-1.6
O=C(C1CCN(CC2CCCCC2)CC1)N1CCCC1	-23	-6%	-3	-3	2.7
O=C(CCC(=O)c1ccc(F)cc1)Nc1cccc(C(F)(F)F)c1	-7	3%	0	3	1.3
COC(=O)C(CCCN1C(=O)c2ccccc2C1=O)(NC(C)=O)c1nnn(C)n1 (centres undefined)	x	-6%	-6	17	-1.2
O=C(O)c1ccccc1NCc1cccnc1	x	x	1	x	0.3
O=C(Cn1cnc(S(=O)(=O)N2CCCC2)c1)Nc1cccc(F)c1	x	x	-2	x	4.2
COc1cc(C2Nc3ccccc3NC3=C2C(=O)CC(c2ccc(OC)c(OC)c2)C3)ccc1O (centres undefined)	x	1%	-9	x	1.0
Cc1ccc(-n2nc3c(c2NC(=O)c2c(-c4ccccc4Cl)noc2C)CSC3)cc1	-46	-7%	-7	17	x
CC1(c2nnc(Cc3ccccc3)o2)CC(c2ccccc2)=NO1 (centres undefined)	x	-7%	-13	x	2.7
Cc1onc(-c2ccccc2)c1C(=O)c1c[nH]c(C(=O)NCc2ccncc2)c1	x	-4%	-3	1	2.6
CC1CCCC(NC(=O)COC(=O)[C@@H](NC(=O)c2ccco2)C(C)C)C1C (some centres undefined)	x	-3%	10	1	-2.8
FC(F)(F)c1nnc2sc(-c3ccncc3)nn12	-24	-16%	1	7	0.3
O=C(c1ccc(F)cc1)C1CCN(C(=S)NCC2CCCO2)CC1 (centres undefined)	x	-6%	-11	27	-5.7
NC1=NC2(CCC(c3ccccc3)CC2)n2c(nc3ccccc32)N1 (centres undefined)	-48	x	98	-32	7.3

Source: PubChem (several laboratories)
